Screening results as filed in PubChem.
MARV entry inh: qHTS for inhibitors of binding or entry into cells for Marburg Virus | Marburg virus pseudotyped entry inhibition, cell reporter; control for the full effect not named in the record; about a third of the inactives were read at about 46 µM | Potency, µM (highest dose often 37.8 µM), inactives show at the top dose activity change, negative = inhibition, usual class: inhibitors | 1.8% of 300,000 active | AID 540276, 2011; active = well fitted inhibition curve with a large enough effect; inconclusive = small, poorly fitted or top-dose-only effect, or effect the other way; inactive = flat fitted curve, though single readings scatter; tested in HEK293 cells; about a fifth of its hits are not listed in these tables; further: on the % scale 0 is the no-effect control and ±100 the full control effect; luciferase read-out
SARS PLpro yeast: qHTS of Yeast-based Assay for SARS-CoV PLP; S. cerevisiae expressing SARS-CoV PLpro, growth rescue; control for the full effect not named in the record; Potency, µM (top dose mostly 32.9 µM), without a hit: at the highest dose activity, positive = growth rescue; 0.19% of 330,000 active; AID 485353, 2010; further: 0% is about no effect; nearly all actives have a fitted effect of over 55% in size; growth read by luminescence after 48 h
LASV entry inh: qHTS for Inhibitors of binding or entry into cells for Lassa Virus | AID 540256, 2011 | Lassa virus pseudotype entry inhibition, cell reporter; control for the full effect not named in the record | 1.2% of 300,000 active | Potency, µM (doses to about 37.9 µM), for the others: top-dose activity change, negative = inhibition, actives largely listed as inhibitors; active means well fitted inhibition curve with a large enough effect; inconclusive means small, poorly fitted or top-dose-only effect, or effect the other way; inactive means flat fitted curve, though single readings scatter; tested in HEK293 cells; further: on the % scale 0 is the no-effect control and ±100 the full control effect; nearly all actives have a fitted effect of over 50% in size; luciferase read-out
StopGo reporter: High Throughput Screening for Foot and Mouth Disease Virus Antivirals; AID 1159524, 2015; human cells with a luciferase reporter of 2A StopGo recoding; control for the full effect not named in the record; Potency, µM (doses to about 57.9 µM), for inactives: at the top dose signal change, negative = less light; 1.2% of 410,000 active; active = well fitted falling curve with a large enough effect; inconclusive = small, poorly fitted or top-dose-only effect; inactive = no such curve, though single readings can be large or run the other way; tested in HEK293T cells; further: on the % scale 0 is the no-effect control and ±100 the full control effect; nearly all actives have a fitted effect of over 45% in size; luciferase light after 4 h
Cruzain inh Det: qHTS Assay for Promiscuous and Specific Inhibitors of Cruzain (with detergent); purified cruzain, Z-FR-AMC fluorescence, 0.01% Triton; AID 1478, 2009; 0.43% of 200,000 active; Cruzipain (Trypanosoma cruzi), P25779; Potency, µM, for the others: max response, negative = inhibition, actives largely listed as inhibitors; active means well fitted curve in the direction sought with a large enough effect; inconclusive means small, poorly fitted or top-dose-only effect, or another doubt; inactive means no such curve, though single readings can be large; an effect the other way counts as inactive or inconclusive;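 further: plate controls were neutral wells for no effect and buffer without enzyme for full effect; nearly all actives have a fitted effect of over 40% in size; top concentration of the series not given in the record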
Target sequence (P25779 123-467 limits assumed): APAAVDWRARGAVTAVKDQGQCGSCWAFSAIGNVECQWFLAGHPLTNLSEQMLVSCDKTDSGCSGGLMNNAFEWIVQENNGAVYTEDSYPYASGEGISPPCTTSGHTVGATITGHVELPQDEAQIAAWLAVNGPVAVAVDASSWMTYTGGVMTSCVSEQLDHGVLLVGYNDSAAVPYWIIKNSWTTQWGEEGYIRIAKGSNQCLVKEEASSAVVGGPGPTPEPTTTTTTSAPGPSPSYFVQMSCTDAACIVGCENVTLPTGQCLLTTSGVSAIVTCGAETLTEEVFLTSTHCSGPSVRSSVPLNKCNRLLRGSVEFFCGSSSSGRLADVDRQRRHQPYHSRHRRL
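Sodium acetate buffer (100 mM, pH 5.5) containing 5 mM DTT and 0.01% Triton X-100 hosted 1.5 nM cruzain and test compound for 15 min at room temperature. Cleavage of 2 uM Z-FR-AMC was then tracked by fluorescence.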
NS1 function inh: qHTS Assay for Inhibitors of Influenza NS1 Protein Function; S. cerevisiae slowed by influenza A NS1, growth recovery by OD600; Potency, µM (highest dose often 46.1 µM), without a hit: at the top dose activity, positive = more growth; 0.4% of 270,000 active; further: actives are rising curves; nearly all actives have a fitted effect of over 50% in size
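OD600 was taken as the measure of yeast growth restored by compound in an NS1-expressing S. cerevisiae strain. Cells had been washed out of glucose medium and diluted 1:100 into galactose -URA medium, pH 6.0.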
Cruzain inh noDet: qHTS Assay for Promiscuous and Specific Inhibitors of Cruzain (without detergent). 2.3% of 200,000 active. AID 1476, 2009. purified cruzain, Z-FR-AMC fluorescence, no detergent. Potency, µM, without a hit: max response, negative = inhibition, most hits filed as inhibitors. Cruzipain (Trypanosoma cruzi), P25779; active means well fitted curve in the direction sought with a large enough effect; inconclusive means small, poorly fitted or top-dose-only effect, or another doubt; inactive means no such curve, though single readings can be large; an effect the other way counts as inactive or inconclusive;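 further: plate controls were enzyme without inhibitor for no effect and buffer without enzyme for full effect; nearly all actives have a fitted effect of over 40% in size; top concentration of the series not given in the record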
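Purified cruzain at 1.5 nM, pre-incubated 15 min with compound at room temperature in 100 mM sodium acetate pH 5.5, 5 mM DTT, 0.00005% Triton X-100. Reaction started with 2 uM Z-FR-AMC; AMC fluorescence increase over 60 s gives rate.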
RE007 growth inh: qHTS Assay for Inhibitors of the HIV-1 protein Vpr; Potency, µM (series often up to 92.2 µM), without a hit: top-dose activity change, negative = less growth; 0.21% of 360,000 active; S. pombe RE007 Vpr strain, BacTiter-Glo ATP luminescence, 24 h; control for the full effect not named in the record; AID 651644, 2012; active = well fitted falling curve with a large enough effect; inconclusive = small, poorly fitted or top-dose-only effect; inactive = no such curve, though single readings can be large or run the other way;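 further: on the % scale 0 is the no-effect control and ±100 the full control effect; nearly all actives have a fitted effect of over 50% in size; the assay follows cell death caused by Vpr and the record does not say whether a fall means rescue or toxicity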
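Fission yeast strain RE007, carrying one chromosomally integrated HIV-1 vpr copy, was seeded at OD 0.01 in PMG+AL medium with 23 nL pinned compound. After 24 h at 30 °C and 99% humidity, viability was read by BacTiter-Glo luminescence.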
* marks the source's active call; other numbers are inactive results; u = inconclusive; x = no result given; & = joins results of further samples; [ ] = another dose, or the depositor's remark. Unless noted, the call rests on the fitted dose curve; in most records, active means well fitted rising curve with a large enough effect; inconclusive means small, poorly fitted or top-dose-only effect; inactive means no such curve, though single readings can be large or run the other way. Potency means the concentration at half of the fitted maximal effect.

compound,MARV entry inh,SARS PLpro yeast,LASV entry inh,StopGo reporter,Cruzain inh Det,NS1 function inh,Cruzain inh noDet,RE007 growth inh
CC1CCN(C(=O)CN(Cc2ccc(Cl)cc2)S(C)(=O)=O)CC1,u,2%,u,7%,x,2%,x,10%
O=C(CSc1nccc(=O)[nH]1)NN(c1ccccc1)c1ccccc1,u,0%,u,6%,x,8%,x,0%
CSc1cccc(CNC(=O)C2CCC(=O)N(CCc3ccccn3)C2)c1 (stereo not given),-2%,0%,10%,-11%,x,3%,x,2%
CCS(=O)(=O)c1nc(S(=O)(=O)c2ccc(C)cc2)c(N2CCC(O)CC2)s1,x,2%,x,16%,x,5%,x,-3%
O=S(=O)(c1ccc(Br)cc1)c1nc(-c2ccco2)oc1NCC1CCCO1 (stereo not given),-10%,-3%,0%,38%[activator],x,x,x,14%
CCCOc1ccc(/C(O)=C2/C(=O)C(=O)N(CCN(C)C)C2c2ccco2)cc1 (stereo not given),6%,0%,-8%,0%,-7.0%,-7%,-3%,0%
COc1ccc(OC)c(S(=O)(=O)N2c3ccccc3CC2C)c1 (stereo not given),-7%,0%,-3%,12%,-6.2%,-4%,-11%,-5%
Cc1ccc2nsnc2c1S(=O)(=O)N1CCOCC1,-1%,12%,5%,-13%,2.7%,-9%,u,-8%
Cc1ccc2nc(COc3cccc(NC(=O)COc4ccc(F)cc4)c3)cc(=O)n2c1,x,x,u,-11%,2.7%,x,0%,x
O=C(Nc1ccc2[nH]c(=O)[nH]c2c1)c1cccc([N+](=O)[O-])c1,x,-8%,x,-9%,x,18%,x,5%
Cc1ccc(Sc2ncccc2C(=O)NC2CCCCCC2)cc1C,u,10%,-7%,-25%,1.1%,4%,5%,6%
COc1ccc(C2CC(=O)CC(=O)C2n2cncn2)cc1 (stereo not given),-18%,-2%,-1%,-11%,4.2%,12%,-8%,-6%
COc1ccc(-c2ccc(Nc3ccc(C(=O)N4CCOCC4)cc3)nn2)cc1OC,-13%,0%,3%,u,-9.0%,3%,-13%,9%
O=C1C2C3C=CC(C4CC34)C2C(=O)N1/N=C/c1c[nH]c2ccccc12 (stereo not given),u,-2%,5%[46.1 µM],32%[activator],x,x,x,-1%
O=C(C1=C[C@@H](C2CCCCC2)C[C@@H](OCCCCO)O1)N1CCN(Cc2ccc3c(c2)OCO3)CC1,x,-1%,x,-16%,x,-9%,x,4%
COc1ccc(/C=C/C(=O)NCCN=C2NS(=O)(=O)c3ccccc32)cc1,-15%,-1%,-9%[46.1 µM],-13%,x,0%,x,-24%
CCn1cc(C(=O)NCCc2ccc(Cl)cc2)c(=O)c2cc(S(=O)(=O)N(C)C)ccc21,x,8%,x,0%,x,2%,x,2%
Cc1ccc(-n2c(C)cc(C)c(C#N)c2=O)cc1,7%,20%,u,14%,2.1%,11%,2%,11%
CCC(C(=O)OCC(=O)NC(=O)NC(C)(C)C)c1ccccc1 (stereo not given),13%,-6%,u,-23%,x,4%,x,-18%
COc1ccc2oc(C(=O)NCCc3ccccc3)c(C)c2c1,u,-21%,0.89µM*,-50%,x,x,x,-17%
CNC(=O)c1ccc(Nc2nnc(-c3ccc(C)c(S(=O)(=O)NC(C)(C)C)c3)c3ccccc23)cc1,x,x,-16%[46.1 µM],10%,-9.9%,x,u,x
O=C(CS(=O)(=O)c1c[nH]c2ccccc12)N1CCCCC1,u,3%,8%,28%,4.2%,1%,-10%,-18%
Cn1c(=O)n(C)c2cc(NS(=O)(=O)c3ccccc3[N+](=O)[O-])ccc21,-6%,0%,-1%,5%,x,-2%,x,5%
CCc1nc(C)cn1S(=O)(=O)c1ccc2c(c1)OCCO2,-6%[46.1 µM],x,u,5%,x,x,x,-9%
CCC1=Nc2cc(C(=O)NC3CCCC3)ccc2Sc2ccc(Br)cc21,u,x,u,-10%,-4.3%,x,u,x
O=C1CC(c2ccccc2)c2cccc(F)c21 (stereo not given),x,0%,x,-26%,x,8%,x,9%
O=C(O)c1cccnc1SC1CC(=O)N(Cc2ccccc2)C1=O (stereo not given),-5%,-2%,11%,-6%,-3.9%,3%,-3%,-15%
COc1ccc(-c2nc(CS(=O)(=O)CC(=O)NCCCc3ccccc3)c(C)o2)cc1,x,-4%,x,-13%,x,6%,x,6%
COc1ccc(CNC(=O)c2cc(C)nc3ccccc23)cc1OC,6%[46.1 µM],0%,u,-27%,x,7%,x,8%
OCCC1CN(Cc2cccn2-c2nccs2)CCN1CCc1ccccc1 (stereo not given),u,0%,11%,-16%,x,-1%,x,-12%
COc1ccc(C)cc1S(=O)(=O)N1CCN(c2cccc(Cl)c2)CC1,-36%[46.1 µM],x,-23%[46.1 µM],-17%,-7.4%,x,-2%,x
Cc1cccc(-c2nnc(SCC(=O)Nc3nc4c(s3)CCCC4)n2C)c1,1%[46.1 µM],13%,-16%,-27%,-9.3%,-3%,-2%,2%
N/C(=N\OC(=O)c1cccs1)C1(c2ccc(Cl)cc2Cl)CC1,7%[14.2 µM],-6%,u,-5%,x,-31%,x,-20%
Oc1c(Br)cc(Br)cc1CNc1ccccn1,4%[46.1 µM],-4%,7%,-15%,x,-88%,x,u
Cc1ccc(C(=O)CSc2nnc(-c3ccccc3N)n2C)cc1,1%,4%,17%,-2%,-3.4%,-2%,-1%,-8%
COc1ccc(/C=N/N=C2\CC3CCC2(C)C3(C)C)cc1O (stereo not given),6%[46.1 µM],8%,-20%,32%[activator],-4.2%,-1%,0%,0%
COC(=O)C1=C(C)N(c2ccc(OC)cc2)C(C)=C(C(=O)OC)C1c1ccccc1,x,-1%,x,-15%,x,-2%,x,32%
CC(=O)N(Cc1c(C#N)c2ccccc2n1C)c1ccccc1,-1%,10%,-9%,-25%,-1.6%,1%,-3%,-9%
CCSC1=N/C(=C\c2cccnc2)C(=O)N1c1ccccc1,-3%,8%,-10%,-25%,-9.5%,-31%,-8%,-20%
CC1=CC(C)(C)N(C(=O)CSc2ncn[nH]2)c2ccccc21,-20%,-2%,3%,-5%,2.2%,7%,8%,-5%
CC1(c2ccc(C#N)cc2)NC(=O)N(CC(=O)Nc2cc(S(=O)(=O)N3CCOCC3)ccc2Cl)C1=O (stereo not given),x,0%,x,-5%,x,-13%,x,9%
COc1cnn(-c2cc(Oc3ccc(C)cc3)ncn2)c(=O)c1Cl,u,-6%,0%,-8%,3.9%,-8%,3%,u
O=C(CN(C(=O)CCC(=O)Nc1nccs1)c1cccc(F)c1)NCc1ccc2c(c1)OCO2,-3%[46.1 µM],0%,13%[46.1 µM],5%,x,-7%,x,-1%
CN(Cc1ccc(F)cc1)C(=O)c1cc(COc2ccc(F)cc2F)on1,-11%[46.1 µM],-1%,-12%[46.1 µM],13%,x,-3%,x,6%
O=C(CSc1nccc(=O)[nH]1)NC1CCCc2ccccc21 (stereo not given),-6%[46.1 µM],0%,-16%,-7%,x,-4%,x,-8%
COC(=O)[C@@H](NC(=O)c1ccccc1)[C@@H](C)O,x,2%,x,-9%,x,-24%,x,-3%
COc1ccc(Br)cc1CN(C)CC(=O)Nc1cccc(S(=O)(=O)N2CCCC2)c1,u,-1%,u,-5%,x,x,x,-19%
COCCCN=C1NN=C(c2cc(C)n(Cc3ccco3)c2C)CS1,16µM*,3%,u,4%,-7.7%,u,-5%,-16%
Cc1ccc(NC(=O)NNS(=O)(=O)c2ccc(Br)cc2)cc1,u,3%,0%,-17%,8.9%,1%,u,2%
CC(=O)c1ccc(NC(=O)CN2CCN(c3ccccc3)CC2)cc1,x,-4%,x,5%,x,-17%,x,-10%

(continued)
compound,MARV entry inh,SARS PLpro yeast,LASV entry inh,StopGo reporter,Cruzain inh Det,NS1 function inh,Cruzain inh noDet,RE007 growth inh
COc1ccccc1NC(=O)c1ccc(-c2ccccc2[N+](=O)[O-])o1,u,7%,x,8%,x,x,x,-13%
CCOc1ccc(NC(=O)c2ncoc2-c2ccco2)cc1,x,x,20%[46.1 µM],38%[activator],-6.2%,x,-17%,x
C=CCOc1ccc(C2C(C#N)=C(N)N(N(C)C)C3=C2C(=O)CCC3)cc1 (stereo not given),x,0%,x,5%,x,-2%,x,3%
Cc1[nH]c2ccc(C(=O)N3CCN(c4ccccc4F)CC3)cc2c1C,x,x,u,21%,-6.3%,x,-16%,x
CC(c1ccccc1)N1CC(C(=O)N2CCN(c3ccccc3)CC2)CC1=O (stereo not given),x,-5%,x,-7%,4.7%,-14%,11%,-1%
COc1cc(NC(=O)c2nccn2C)cc(C(=O)Nc2cccc(C(F)(F)F)c2)c1,x,10%,x,-4%&-5%,x,5%,x,-6%&7%
Cc1ccc(NS(=O)(=O)c2c(C)[nH]c(C)c2C(=O)N2CCCC2)cc1Cl,-21%[46.1 µM],u,u,35%[activator],x,-6%,x,-10%
CCCOC(=O)c1cc(=O)[nH]c2ccccc12,-9%[46.1 µM],0%,u,-21%,1.3%,-1%&-6%,8%,41%
Cc1ccc2c(c1)N(CC(=O)NCCCN1CCCCC1)C(=O)CO2,3%[46.1 µM],-1%,10%[46.1 µM],9%,x,-1%,x,-3%
COC1=C(N)C(=O)c2nc(-c3nc(C(=O)O)c(C)c(-c4ccc(OC)c(OC)c4O)c3N)ccc2C1=O,0.058µM*,-67%,0.082µM*,4µM*,-24%,-21%,0%,20%[18.4 µM]
Cc1ccc(OCC(=O)Nc2ccc(S(=O)(=O)N(C)C3CCN(C)CC3)cc2)c(C)c1,x,0%,x,-21%,x,-8%,x,5%
